Tgondii IFNg: T. gondii growth inhibition with IFN-gamma, primary screen, cell-based | AID 1259416, 2018 | Toxoplasma gondii growth in IFN-gamma-treated host cells; active compounds read low; reference of the scale not given here | activity change, negative = inhibition, %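 (about 20 µM by stock and volumes)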 | actives 3.8% (n = 69,000);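 active means below -70%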;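 further: host cells are HeLa cells infected with Toxoplasma gondii; parasite growth read as luciferase light; one replicate is shown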
Active calls of the source: *; i = inactive. Not all compounds are listed; the hit share may differ from the screen's.

SMILES	Tgondii IFNg
CCc1ccc(S(=O)(=O)NCCc2sc(-c3ccc(OC)cc3)nc2C)cc1	i
O=C(CC1COCCN1)N1CCN(C(=O)c2ccco2)CC1 (stereo not given)	15
CNC(=O)c1ccc(C2CCCN2C(=O)c2cn[nH]n2)s1 (stereo not given)	2
Cc1ccc(S(=O)(=O)Nc2ccc3c(c2)C(=O)N([C@@H](C)CO)C[C@@H](C)[C@H](CN(C)S(=O)(=O)c2cccs2)OCCCC[C@@H](C)O3)cc1	-103*
CC1(C)NC(=O)N(Cc2ccc(N)cc2)C1=O	27
Cc1cc([C@@H]2C[C@H](NC(=O)c3ccccc3)C[C@H](CC(C)C)O2)n[nH]1	-1
Cc1[nH]c(SCC(=O)Nc2nccs2)nc1Cc1ccccc1	-11
COCCN(Cc1cnn(C)c1)C(=O)c1c(C)nn(-c2ccc(F)cc2)c1C	-53
Cc1ccccc1-n1nnc(C(=O)N2CCN(S(=O)(=O)N3CCCC3)CC2)c1C	5
CCc1nc(-c2nccn2CCc2cccc(OC)c2)c(C)[nH]1	6
OC(CNCc1cc2ccccc2s1)C(F)(F)F (stereo not given)	-86*
Cc1ccc2c(c1)NC1(CCN(S(=O)(=O)c3ccccc3F)CC1)c1cccn1-2	34
COc1cncc(C(=O)Nc2ccc(Cl)cc2F)c1	-19
O=C(Cc1ccc(N2CCNC2=O)cc1)N1CCC2(CCCO2)CC1	6
CS(=O)(=O)N1CCC(NC(=O)c2onc3ccccc23)CC1	-1
Cn1cc(C(CNC(=O)Nc2ccc(Br)cc2F)c2cccnc2)c2ccccc21 (stereo not given)	i
CCO[C@@H]1C[C@@H]2CN(C(=O)c3cscn3)CCN2C1	66
COc1ccc(CCC(=O)N2CCC(C)(C(=O)NCc3cc(OC)cc(OC)c3)CC2)cc1	27
CC(C)(NC(=O)c1cccs1)C(=O)N1CCC1c1ccc(F)cc1 (stereo not given)	6
COc1ccccc1NC(=O)N1C[C@H]2[C@@H](c3ccccc31)[C@H](CO)N2CC1CCOCC1	-5
COc1ccccc1-c1ccc([C@H]2[C@@H](CO)N[C@@H]2CNC(=O)C2CC2)cc1	-43
Cc1ccc(NC(=O)COc2nc(C)nc3ccccc23)c(Br)c1	1
CC[C@H](Cn1nnc2ccccc2c1=O)NC(=O)c1cnccn1	-50
COc1ccccc1-c1ccccc1[C@H]1[C@@H](C#N)N(C(=O)CN(C)C)[C@@H]1CO	20
COc1ccc(-c2nc(Nc3cc(C)ccc3OC)c3ccccc3n2)cc1	-17

Given with bars between the fields: part of the list above.
smiles | Tgondii IFNg
COc1ccccc1NC(=O)N1C[C@H]2[C@@H](c3ccccc31)[C@H](CO)N2CC1CCOCC1 | -5
O=C(CC1COCCN1)N1CCN(C(=O)c2ccco2)CC1 (stereo not given) | 15
CC[C@H](Cn1nnc2ccccc2c1=O)NC(=O)c1cnccn1 | -50
Cc1ccccc1-n1nnc(C(=O)N2CCN(S(=O)(=O)N3CCCC3)CC2)c1C | 5

The list continues.
SMILES	Tgondii IFNg
CCc1cnc(N2CCO[C@@H]3CN(Cc4ccoc4)CC[C@H]3C2)nc1	-10
COc1cccc2c1OCC(CN1CCOC3(CNCCOC3)C1)=C2 (stereo not given)	-10
CCN1C(=O)CCc2cc(NC(=O)c3ccc(C(C)C)cc3)ccc21	-105*
Cc1ccc(-c2ccc(OCCNC(=O)c3sc(-c4ccccc4)nc3C)nn2)cc1	3
CCCN1C(=O)CCc2cc(NC(=O)c3cccc(C#N)c3)ccc21	-17
CCOc1c(Nc2ccc(C(C)C)cc2)c(=O)c1=O	30
CN(CC1CCCN1C)C(=O)c1cc(CN2CCc3ccccc3C2)on1 (stereo not given)	-21
Cn1nc(Cn2cccc2)c2c1CN(CC1CCOC1)C2 (stereo not given)	2
Cc1cc(-n2cnc3c(C)ncnc32)ccc1NC(=O)c1cccnc1	-14
Cc1nc(-c2ccc(Cl)cc2)sc1CCNC(=O)c1ccc(C(F)(F)F)cc1	-42
Cc1cc(C)n(-c2cccc(-c3nccn3Cc3cnn(C)c3C)c2)n1	2
CN(C)c1ncc2c(n1)C1(CCN(c3ncccn3)C1)COC2 (stereo not given)	i
Cn1c(SCc2nc(N)nc(N3CCCc4ccccc43)n2)nnc1-c1ccccc1	-21
Cc1nn(Cc2nc(-c3ccc(NC(=O)c4cccc(C#N)c4)cc3)oc2C)c(C)c1C	76
OCCOc1ccc(CNc2n[nH]c(CC3CCCCC3)n2)cc1	91
CCCC(=O)N1C[C@@H]2CN(c3cnccn3)CC[C@H]2C1	24
COc1cc(C(=O)Nc2ccc(-c3nc(-c4ccccc4)co3)cc2)cc(OC)c1OC	-20
Cc1ccc(CNCC2COCc3c(C)nnn3C2)cc1 (stereo not given)	16
Cc1cnc(CNC(=O)CC2COCCN2)cn1 (stereo not given)	4
CN(CCc1cn[nH]c1)C(=O)[C@H]1C[C@@H](C(=O)O)N(C)[C@H]1c1ccccc1F	-5
CC(=O)Nc1cc2ccccc2oc1=O	9
C=CCNc1ccccc1C(=O)N1CCC(C(C)COC)CC1 (stereo not given)	-49
COCc1cnc2n1CCN(C(=O)c1ccc3c(c1)OCO3)C2C (stereo not given)	-2
CC[C@H]1CN(C(=O)c2sc(C)nc2-c2ccccc2)CC[C@@]1(C)O	6
CCN1CCC2(CC1)OC(=O)C(C)=C2C(=O)Nc1c(C)cccc1C	126

(continued)
SMILES	Tgondii IFNg
CC1COC2(CCCN(C(=O)c3ccc4nc[nH]c4c3)C2)C1 (stereo not given)	-61
C=CCn1c(-c2c(-c3ccccc3)ncn2CCO)nc2ccccc21	-11
COc1ccc(CC(=O)N2CCC(N3CCCC3)CC2C(=O)O)cc1 (stereo not given)	-27
CN(C(=O)CCCN1CCOCC1)C1CCCc2ccccc21 (stereo not given)	5
COc1ccc2c3c(n(C)c2c1)[C@H](CO)N(C)CC31CCN(C(=O)c2ccccc2F)CC1	51
COc1ccc(-c2nc(N(Cc3ccco3)CC3CCCO3)c3ccccc3n2)cc1 (stereo not given)	1
O=C(NCCc1csc(-c2cccc(F)c2)n1)C1CC1	-2
CCS(=O)(=O)Nc1ccc2c(c1)C(=O)N(C)[C@@H]1CC[C@@H](CC(=O)NC3CCCCC3)O[C@@H]1CO2	6
CC(C)(C)c1ccc(C(=O)N2CCCC2)s1	67
CCOc1ccc(-c2nc(CN(C)S(=O)(=O)c3ccccc3)c(C)o2)cc1	3
CC(C)CNC(=O)c1cn(C2CCN(C(=O)c3ccccn3)CC2)nn1	3
COc1ccc(CCNC(=S)NC(=O)c2ccc(Br)cc2)cc1OC	6
Cc1ccc(CNC(=O)c2cncc(N(C)S(=O)(=O)c3ccccc3)c2)cc1	24
Cc1cccc(CN2CCCC3(CCN(CC4CC4)CC3)C2=O)n1	56
CC1=C(C(=O)Nc2ccc(F)cc2)C2(CCN(S(C)(=O)=O)CC2)OC1=O	23
CNC(=O)[C@H]1C[C@@H]2CN(Cc3ccoc3)C[C@@H]2N1C(C)C	35
CCc1c(C)[nH]n2c(=O)cc(Cc3ccc(F)cc3)nc12	-103*
CCS(=O)(=O)c1ccc2oc(=O)[nH]c2c1	-14
O=C(N1CCOCC1)N1CCc2ncnc(-c3cccc(F)c3)c2CC1	-4
CCCn1nc(C)c(CN(CCN(C)C)Cc2ccccn2)c1C	-32
N#C[C@H]1[C@@H](c2ccccc2C2=CCCC2)[C@@H](CO)N1C(=O)NC1CCCCC1	-49
CN(C)c1ccc(C(=O)N2CCCC2c2nc(-c3ccncc3)n[nH]2)cc1 (stereo not given)	-15
N#C[C@@H]1[C@@H](c2ccccc2C2=CCCCC2)[C@@H](CO)N1C(=O)c1ccccn1	-49
CCC(NC(=O)c1nc2ccccc2c(=O)[nH]1)c1nc(C)c(C)s1 (stereo not given)	9
Cc1ccc(NC(=O)Cn2c(=O)cc(C(=O)N3CCCCC3)c3ccccc32)cc1F	9

Next part
SMILES	Tgondii IFNg
CCN1CCc2nc(N3CCOCC3)nc(N(C)C)c2C1	-25
O=C(Cc1ccccn1)N1CC(=O)N2[C@H](CO)[C@H](c3ccc(C#CCC4CCCC4)cc3)[C@@H]2C1	-10
Cc1oc(C(C)C)cc1C(=O)N1CCc2c(c(C(=O)O)nn2CC2CC2)C1	8
CCOc1cccc(C2c3[nH]c4ccccc4c3CCN2C(=O)c2ccccc2F)c1 (stereo not given)	-65
CC(C)NC(=O)N1CCc2ncc(CN(C)C(C)C)n2CC1	-4
COCC(=O)N1CC2(C1)CN(Cc1ccc3c(c1)OCO3)[C@H](CO)c1c2c2ccc(OC)cc2n1C	-41
COc1cccc(C2Nc3c(C(=O)O)cccc3C3c4ccccc4CC23)c1OC (stereo not given)	-39
Cc1ccc(C)c(NC(=O)c2c(O)c3cccnc3[nH]c2=O)c1	39
COc1ccccc1N1CCN(C(=O)C2CCCCC2)CC1	7
COCCO[C@@H]1CCN(C2CCOCC2)[C@H]1Cc1cnn(C)c1	135
CN1C(=O)C(O)(CC(=O)/C=C/C=C/c2ccccc2)c2ccccc21 (stereo not given)	23
CCCCc1nc(S(=O)(=O)c2ccc(C)cc2)c(N2CCOCC2)o1	-4
O=C(NCc1nc(-c2ccccc2)no1)c1cnn(-c2ccc(F)cc2)c1	17
Cc1cc(-c2nnc(CCC(=O)NCC3(c4ccccc4)CCOCC3)o2)c(C)o1	20
CCN(CC)Cc1ccccc1NC(=O)c1cn2cc(Cl)ccc2n1	6
CC1=C(C(=O)NCCN2CCC(Cc3ccccc3)CC2)C2(CCCCC2)OC1=O	-84*
O=C(O)c1cc(-c2ccc3c(c2)OCO3)nc2ccc(Br)cc12	8
COCCN1C(=O)CCc2cc(NC(=O)c3ccccc3Cl)ccc21	24
N#CCSc1nnc(SCC#N)s1	32
Cc1ccc2c(C)c(C(=O)N3CCCN(c4ncccn4)CC3)oc2c1	11
CC(C)(C)[S@](=O)N1Cc2cc(C(=O)N[C@@H]3CCN(Cc4ccccc4)C3)nc(-c3cccc(-c4cccnc4)c3)c2[C@@H]1CCO	-53
O=C(c1ccc(C(F)(F)F)cc1)N1CCN(S(=O)(=O)c2cc3c4c(c2)CCN4C(=O)CC3)CC1	-52
C[C@H]1CC=CC[C@@H](c2ccccc2)NC(=O)[C@H](C)N(C)C(=O)c2ccccc2O1 (mixture of isomers)	-27
COc1ccccc1C(=O)NCCc1csc(-c2ccc(C(F)(F)F)cc2)n1	-27
N#Cc1ccccc1Sc1ccccc1C(=O)Nc1ccccc1C(F)(F)F	84

The last three records of the part above open the next one:
SMILES	Tgondii IFNg
C[C@H]1CC=CC[C@@H](c2ccccc2)NC(=O)[C@H](C)N(C)C(=O)c2ccccc2O1 (mixture of isomers)	-27
COc1ccccc1C(=O)NCCc1csc(-c2ccc(C(F)(F)F)cc2)n1	-27
N#Cc1ccccc1Sc1ccccc1C(=O)Nc1ccccc1C(F)(F)F	84
Cc1nc(-c2ccccc2)c(C(=O)N(C)C(C)c2ccon2)s1 (stereo not given)	30
COc1ccc2c3c([nH]c2c1)[C@@H](CO)N(S(=O)(=O)c1cn(C)cn1)CC31CCN(CC2CCCCC2)CC1	-33
O=C(CN1C(=O)CCc2cc(Br)ccc21)N1CCN(c2ccccc2)CC1	-43
CCc1ccc(CN2CC[C@H]3[C@H](CO[C@H]3CN3CCOCC3)C2)o1	205
CCc1cc(C(=O)N2CCc3c(c(C(=O)N4CCN(c5ccccc5)CC4)nn3CC)C2)no1	-18
COc1ccc(NC(=O)Cn2c(C)cc(C)c(C#N)c2=O)cc1Cl	-16
N[C@](CC1c2ccccc2Oc2ccccc21)(C(=O)O)[C@H]1C[C@@H]1C(=O)O	11
CC(=O)N1Cc2ccccc2OC2(CCC(N(C)C(=O)c3cn4ccc(C)cc4n3)CC2)C1 (stereo not given)	5
Cc1ccccc1-c1ccc([C@@H]2[C@H](CO)N3C(=O)CN(C(=O)c4ccncc4)C[C@@H]23)cc1	-13
Nc1cc(F)ccc1NC(=O)/C=C/c1cnn(C/C=C/c2ccccc2)c1	-12
O=C(CCCc1c[nH]c2ccccc12)N1CCCC2(CCNCC2)CC1	-32
CN(C)CC1CCC2(COCCN(C(=O)Cc3cccc(F)c3)C2)O1 (stereo not given)	5
O=C(c1ccoc1)N1CCC2(CCN(Cc3cccc(F)c3)C2=O)C1 (stereo not given)	4
CC[C@H](C)[C@H](NC(=O)[C@H](Cc1ccc(O)cc1)NC(=O)[C@@H](NC(=O)[C@@H](CCCN=C(N)N)NC(=O)[C@@H](N)CC(=O)O)C(C)C)C(=O)N[C@@H](Cc1cnc[nH]1)C(=O)N1CCC[C@@H]1C(=O)N[C@H](Cc1ccccc1)C(=O)O	14
COc1ccccc1S(=O)(=O)N[C@H]1C=C[C@H](CC(=O)N2CCOCC2)O[C@@H]1CO	27
COc1ccccc1NC(=O)C1CCN(S(=O)(=O)c2ccc3[nH]c(=O)ccc3c2)CC1	35
COc1ccc(-c2nnc(-c3nc(Nc4cccc(Br)c4)c4ccccc4n3)o2)cc1	25
CCNC(=S)NC12CC3CC(CC(C3)C1)C2	2
COCc1nc(NCCC2=CCCCC2)c2cnn(C)c2n1	-14
OC(CSc1nc2ccccc2s1)Cn1c2ccccc2c2ccccc21 (stereo not given)	-75*
CCOc1cc(C(=O)NCCc2csc(-c3cccc(C)c3)n2)cc(OCC)c1OCC	i
CCc1nc2cc(NC(=O)COc3ccccc3-c3nc(C)no3)ccc2n1CC	-74*
CC(C)c1cc(C2CCN(C(=O)c3ccc4cccnc4n3)CC2)[nH]n1	-53

Ordered by SMILES length (smallest number first): part of the list above
SMILES	Tgondii IFNg
Cc1[nH]c(SCC(=O)Nc2nccs2)nc1Cc1ccccc1	-11
CS(=O)(=O)N1CCC(NC(=O)c2onc3ccccc23)CC1	-1
CCc1ccc(S(=O)(=O)NCCc2sc(-c3ccc(OC)cc3)nc2C)cc1	i
COc1ccc(-c2nnc(-c3nc(Nc4cccc(Br)c4)c4ccccc4n3)o2)cc1	25
COc1ccccc1NC(=O)C1CCN(S(=O)(=O)c2ccc3[nH]c(=O)ccc3c2)CC1	35
COc1ccccc1S(=O)(=O)N[C@H]1C=C[C@H](CC(=O)N2CCOCC2)O[C@@H]1CO	27
CC[C@H](C)[C@H](NC(=O)[C@H](Cc1ccc(O)cc1)NC(=O)[C@@H](NC(=O)[C@@H](CCCN=C(N)N)NC(=O)[C@@H](N)CC(=O)O)C(C)C)C(=O)N[C@@H](Cc1cnc[nH]1)C(=O)N1CCC[C@@H]1C(=O)N[C@H](Cc1ccccc1)C(=O)O	14

From PubChem BioAssay
